Screens from PubChem.
KCNQ2 pot – KCNQ2 (rat) channel potentiation; CHO-K1 KCNQ2, FluxOR thallium flux fluorescence; hits give high values; B-score at 10 µM; O88943; 310,000 tested, 0.54% active;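 active means fluorescence ratio B-score at least 3 SD of library B-scores, with initial fluorescence B-score within 3 SD, cut at about 5.3 in these data; same plate scores as AID 2156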;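 further: B-score of peak minus minimum over baseline fluorescence ratio after K+ and Tl+ stimulus; positive B-score means potentiation of KCNQ2 with more thallium influx and brighter signal; only the inactives scoring about 0 or higher are listed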
Target sequence (O88943 whole entry, looked up): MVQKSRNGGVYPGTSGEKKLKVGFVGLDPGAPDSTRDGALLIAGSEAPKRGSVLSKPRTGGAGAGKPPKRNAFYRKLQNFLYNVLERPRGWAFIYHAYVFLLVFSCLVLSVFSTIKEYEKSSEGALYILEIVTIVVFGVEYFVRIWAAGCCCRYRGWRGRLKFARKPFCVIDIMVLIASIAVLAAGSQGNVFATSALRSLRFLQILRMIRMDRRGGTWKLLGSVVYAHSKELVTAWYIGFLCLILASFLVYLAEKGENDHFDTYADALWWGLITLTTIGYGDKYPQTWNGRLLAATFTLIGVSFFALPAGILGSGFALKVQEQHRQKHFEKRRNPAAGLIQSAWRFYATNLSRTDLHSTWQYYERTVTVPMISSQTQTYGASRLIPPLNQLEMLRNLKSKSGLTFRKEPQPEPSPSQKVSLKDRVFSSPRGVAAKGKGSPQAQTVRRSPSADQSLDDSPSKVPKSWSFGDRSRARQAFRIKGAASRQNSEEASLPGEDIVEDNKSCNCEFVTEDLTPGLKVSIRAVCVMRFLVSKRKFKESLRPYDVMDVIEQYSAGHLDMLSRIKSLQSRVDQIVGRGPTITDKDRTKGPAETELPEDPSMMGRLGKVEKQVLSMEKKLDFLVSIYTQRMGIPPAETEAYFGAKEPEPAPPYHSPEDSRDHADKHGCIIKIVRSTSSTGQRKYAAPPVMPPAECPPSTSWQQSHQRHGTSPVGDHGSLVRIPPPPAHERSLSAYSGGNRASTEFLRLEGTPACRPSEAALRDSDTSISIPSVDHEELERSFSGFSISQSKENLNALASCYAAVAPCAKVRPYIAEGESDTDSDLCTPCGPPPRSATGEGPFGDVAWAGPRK
KCNQ2 pot baseline – recorded beside KCNQ2 pot, whose call it bears; B-score; compound at 10 µM; measured here: initial fluorescence intensity artifact check;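 brightness before thallium and not channel activity; 0 = typical well and far values either way flag optical interference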
* = called active by the depositor.

canonical_smiles | KCNQ2 pot | KCNQ2 pot baseline
CC1CN(Cc2cn(C)nc2-c2ccc(Oc3ccccc3)cc2)CCN1C (configuration not stated) | 0.46 | 1.3
Cn1c(N)cc(-c2ccc(F)cc2)c(C#N)c1=O | 0.57 | 1.3
O=C(Nc1ccc(-c2ccccc2)cc1)c1ccc2c(c1)S(=O)(=O)c1ccccc1C2=O | 0.11 | -1.9
CCCC(=O)Nc1sc(C(=O)OC)c(C)c1C(N)=O | 3 | 0.9
COc1ccc(CN2CCN(CC3CC3)CC2CCO)cc1C (configuration not stated) | 3 | -1.7
COC(=O)[C@@]1(Cc2ccc(F)cc2)[C@H]2c3cc(C(=O)N4CCCC4)n(CCc4c[nH]c5ccc(OC)cc45)c3C[C@H]2CN1C(=O)c1ccccc1 | 0.32 | -0.57
O=C1CC(=O)Nc2cc(S(=O)(=O)N3CCOc4ccccc43)ccc2N1 | 1.7 | 1.3
Cc1cc(C(=O)OCC(=O)Nc2nc(-c3ccccc3)cs2)c(C)o1 | 0.1 | 1.5
Cc1[nH]c2ccc(C(=O)NCCCN(C)C3CCCCC3)cc2c1C | 0.26 | 0.33
CCOCCCNC(=O)C(c1ccc(OC)cc1)N(Cc1ccc2c(c1)OCO2)C(=O)c1ccccn1 (configuration not stated) | 1.1 | 0.14
CC1CN(C(=O)COC(=O)c2nn(-c3ccccc3)c(=O)c3ccccc23)CC(C)O1 (configuration not stated) | 0.13 | 0.77
CCOc1cc(/C=N/Nc2nnc(C)n2N)ccc1O | 1.2 | -0.09
CCOC(=O)COc1cc(=O)n(CC)c2ccccc12 | 2.6 | -2.4
CC(C)CNC(=O)c1ccc(NC(=O)c2ccccc2[N+](=O)[O-])cc1 | 0.21 | 0.24
C#CCOc1coc(COC(=O)c2ccccc2)cc1=O | 1.5 | -3
Cc1nc(C)c(Cc2ccccc2Cl)c(=O)[nH]1 | 1 | 0.78
COC(=O)c1sccc1NC(=O)C1CC(C)=C(C)CC1C(=O)O (configuration not stated) | 0.11 | -0.11
CCS(=O)(=O)c1nc(S(=O)(=O)c2ccc(C)cc2)c(NCCCN2CCOCC2)s1 | 0.02 | -0.03
Oc1ccccc1-c1nc(NCc2cccnc2)c2ccccc2n1 | 0.06 | 1.2
N/C(=N\OC(=O)c1cnn(-c2ccccc2)c1C(F)(F)F)c1ccc(C(F)(F)F)cc1 | 0.52 | -0.39
O=C(NCCCN1CCOCC1)c1cccc(S(=O)(=O)N2CCc3ccccc3C2)c1 | 0.48 | -0.03
COc1ccccc1NC(=S)NCCN1CCOCC1 | 0.06 | -0.58
O=C(Nc1c(-c2ccccc2)nc2ccccn12)c1ccco1 | 0.57 | -1.2
CC(=O)c1cccc(NC(=O)CCCSc2ccccc2)c1 | 0.32 | -0.65

Some of these compounds in order of number of heavy atoms, smallest number first:
canonical_smiles | KCNQ2 pot | KCNQ2 pot baseline
COc1ccccc1NC(=S)NCCN1CCOCC1 | 0.06 | -0.58
CC(=O)c1cccc(NC(=O)CCCSc2ccccc2)c1 | 0.32 | -0.65
O=C(Nc1c(-c2ccccc2)nc2ccccn12)c1ccco1 | 0.57 | -1.2
Oc1ccccc1-c1nc(NCc2cccnc2)c2ccccc2n1 | 0.06 | 1.2
CCS(=O)(=O)c1nc(S(=O)(=O)c2ccc(C)cc2)c(NCCCN2CCOCC2)s1 | 0.02 | -0.03
O=C(NCCCN1CCOCC1)c1cccc(S(=O)(=O)N2CCc3ccccc3C2)c1 | 0.48 | -0.03

(continued)
canonical_smiles | KCNQ2 pot | KCNQ2 pot baseline
CCCN1CCN(S(=O)(=O)c2ccc(OC)c(Br)c2)CC1 | 1.7 | -2.7
COc1ccc(OC)c2c1nc1n2CCS1 | 0.55 | -0.44
Cn1c(SCc2ccccc2)nnc1-c1ccc2nonc2c1 | 0.07 | 0.92
Cc1cc(-c2ccc(Cl)cc2)n2nc(N)nc2n1 | 1.2 | -0.52
O=C(CCSc1ccccc1)Nc1nnc(-c2ccccc2)o1 | 0.98 | 1.7
COc1ccc(NC2SC(=O)N(C)C2=O)cc1 (configuration not stated) | 0.34 | 0.8
Cc1cc(C)cc(C(=O)NN2CCN(C)CC2)c1 | 0.08 | 0.53
COc1ccc(Cl)cc1NC(=O)/C=C\C(=O)O | 1.7 | 0.36
COc1ccc(S(=O)(=O)N(CC(=O)O)c2ccccn2)cc1 | 0.01 | -1.4
O=C(CSCc1ccc(Cl)cc1)Nc1nccs1 | 1.5 | -0.64
Cc1ccc(C)c(NC(=S)NNC(=O)c2csc(C)c2)c1 | 2.4 | -0.59
Cc1nc(NCCc2ccccc2)c2nnn(Cc3ccccc3)c2n1 | 0.8 | -1.4
O=C(CC12CC3CC(CC(C3)C1)C2)N/N=C/c1ccc([N+](=O)[O-])o1 | 16* | -0.31*
O=[N+]([O-])c1cccc(-c2nc(-c3ccccc3)c(-c3cccs3)[nH]2)c1 | 0.27 | -0.41
CC(NC(=O)CCC(=O)NC(C)c1ccccc1)c1ccccc1 (configuration not stated) | 0.73 | 0.76
CCOC(=O)NC(=O)/C(C#N)=N\Nc1cccc(Cl)c1 | 0.73 | 2.4
CCCc1cc(=O)[nH]c2nnc(SCC(=O)Nc3cc(C)on3)n12 | 0.11 | 2.3
NC(=O)c1cc(S(=O)(=O)Nc2cccc(Cl)c2)cs1 | 0.55 | 2.4
CCOc1cc(/C=N\O)cc(Cl)c1OCC | 0.02 | 0.4
COc1cc2[nH]c(=S)nc(NCCCOC(C)C)c2cc1OC | 1.8 | -0.71
O=c1oc2ccccc2c(Nc2ccc(Cl)cc2)c1[N+](=O)[O-] | 1.1 | 1.4
CC(C(=O)OCC(=O)c1c(N)n(C)c(=O)n(C)c1=O)N1C(=O)c2ccccc2C1=O (configuration not stated) | 2 | -1.1
Cn1c(CCCNC(=O)c2ccccc2)nc2ccccc21 | 1.7 | -1.8
O=C(Nc1ccccc1)N1CCCC2CCCCC21 (configuration not stated) | 2.6 | -1.3
O=C1C(NS(=O)(=O)c2cccs2)=C(N2CCN(c3ccccc3)CC2)C(=O)c2ccccc21 | 0.72 | -0.34
N#Cc1ccc(Oc2cnccn2)cc1 | 0.93 | 0.51
COCc1cc(C)nc2sc(C(=O)N3CCN(c4ccccc4)CC3)c(N)c12 | 0.01 | -1.8
Cc1occc(=O)c1OCc1ccccc1 | 0.38 | 0.04
Nc1nn(S(=O)(=O)c2cccc3nsnc23)cc1-c1ccc(Br)cc1 | 8* | 0.03*
COCC(C)n1c(SCc2cc(=O)n3cc(C)ccc3n2)nc2ccccc2c1=O (configuration not stated) | 2.6 | -2.1
CC(C)c1ccc(SCc2noc(C(=O)NCC3CCCO3)c2C(=O)O)cc1 (configuration not stated) | 0.82 | 1.2
c1ccc(-c2nn3c(-c4ccccc4)nnc3s2)cc1 | 0.95 | 1.2
COc1ccc(Nc2c3c(nc4ccc(C)cc24)CCC3)cc1 | 0.65 | -0.3
O=C(Nc1nnc(-c2ccc(Br)cc2)o1)C1=COCCO1 | 3.3 | -1.2
Fc1ccc(-c2nnc(CSc3nnc4ccccn34)o2)cc1 | 0.16 | -0.05
COC(=O)COc1ccc(S(=O)(=O)NCc2ccncc2)cc1 | 0.31 | 0.42
Cc1ccc(S(=O)(=O)N2CCC(C(=O)NNC(=O)c3ccccc3O)CC2)cc1 | 0.31 | 0.11
OCCOCCn1c(C2CCCN2c2nc(-c3ccc(F)cc3)cs2)nc2cc(C(F)(F)F)ccc21 (configuration not stated) | 0.11 | 0.96
Cc1ccccc1-n1ccnc1SCC(=O)NCC1CCCO1 (configuration not stated) | 0.62 | 1.2
Cc1cc(Nc2ccc(O)cc2)n2c(nc3ccccc32)c1C#N | 0.02 | -0.38
COc1ccc(OCC(=O)Nc2nnc(C)s2)cc1 | 0.78 | -0.47
Cc1cnn(C(=O)c2oc3ccccc3c2C)c1 | 0.64 | -0.68
O=C(Nc1cccc(Cl)c1)N(Cc1nc2ccccc2c(=O)[nH]1)Cc1cccs1 | 0.18 | -1.3
COCCN1C(=O)N[C@@H](c2cccs2)C(C(C)=O)=C1C | 0.88 | -1.6
Cn1c(SC2CCCCC2=O)nnc1-c1ccccc1F (configuration not stated) | 1.4 | -1.1
O=C(NC1CCCCCC1)C1c2ccccc2C(=O)N1CCCN1CCOCC1 (configuration not stated) | 0.37 | 0.64
CCCCN(C(=O)C1=COCCO1)c1c(N)n(CCC)c(=O)[nH]c1=O | 0.77 | -2.5
C/C(=N/NS(=O)(=O)c1ccc(C)cc1C)c1ccc2c(c1)OCO2 | 3.2 | 0.2
Cc1ccc2c(c1)/C(=C/c1ccc(F)cc1)C(=O)N2 | 0.68 | 0.28
CCOC(=O)c1c(N)sc(C(O)(C(F)(F)F)C(F)(F)F)c1-c1ccc(F)cc1 | 1.1 | 0.03
CC(=O)N1c2ccc(S(=O)(=O)NCCC(=O)NCCc3cccc(C)c3)cc2CC1C (configuration not stated) | 1.4 | 2.5
COc1ccc(C(=O)NCC(=O)NCC(=O)OCc2ccc(Br)cc2)cc1 | 0.54 | 0.82
COCCn1c(C)cc(C(=O)COC(=O)c2cccc(O)c2)c1C | 0.3 | 0.87
Cc1ccc(-c2csc3ncn(Cc4ccc(C(=O)O)cc4)c(=O)c23)cc1C | 1.7 | -0.28
O=C(NC(=S)Nc1ccccc1C(=O)O)c1cncc(Br)c1 | 0.32 | -0.72
O=C(Nc1cnc2ccccc2c1)c1cccc(-n2cnnn2)c1 | 1.1 | -0.49
O=C(c1ccc2ncsc2c1)N1CCN(c2ccccc2Cl)CC1 | 0.09 | -0.91
Cc1ccccc1NC(=O)NC1(C(=O)N2CCOCC2)CCCCC1 | 0.02 | 1
CC(=O)c1ccc(N2CCN(CC(=O)N(CC(C)C)c3c(N)n(CC(C)C)c(=O)[nH]c3=O)CC2)cc1 | 0.92 | -1.3
COc1ccc(N(C(=O)c2cccnc2)S(=O)(=O)c2ccc3c(c2)n(C)c(=O)n3C)cc1 | 0.47 | 1.4

Single records, from the list above. Order of values: KCNQ2 pot, KCNQ2 pot baseline
`COc1ccc(S(=O)(=O)N(CC(=O)O)c2ccccn2)cc1` is entered as 0.01, -1.4
`Cc1nc(C)c(Cc2ccccc2Cl)c(=O)[nH]1` is entered as 1, 0.78

Other structures
canonical_smiles | KCNQ2 pot | KCNQ2 pot baseline
C#CCCCCCCCCC(=O)NCCCC | 1.9 | -0.01
COc1cccc(NC(=O)c2nn(C)c3c2CS(=O)(=O)c2ccccc2-3)c1 | 2 | -0.31
Cc1ccc(Cl)cc1NC(=O)CN1CCN(C(=O)C2CCCO2)CC1 (configuration not stated) | 0.71 | -2.2
N#CC(C(=O)Nc1ccccc1)=C1CCCCC1 | 2.5 | -2
CSc1sc(C(=O)NN)c2c1C(O)CCC2 (configuration not stated) | 0.05 | -4.3
Cc1ccc(S(=O)(=O)N2CCOCC2)cc1NC(=O)COC(=O)c1cc(=O)[nH]c2ccccc12 | 0.71 | -0.92
c1ccc(Nc2nc(-c3cccs3)cs2)nc1 | 0.91 | 1.4
CC1CCN(C(=O)CSc2nnc3c(n2)[nH]c2ccc(F)cc23)CC1 | 0.84 | -0.04
Cc1ccc(NC(=O)Cn2nnc(C(=O)NCc3ccco3)c2N)cc1 | 1.2 | -0.39
O=C(Nc1ccccc1)OCc1cn(-c2ccc(Cl)cc2)nn1 | 1 | -0.74
O=C(CSc1nncs1)NC(=O)NC1CCCC1 | 0.02 | 0.15
O=C(NC1CCCN(Cc2ccc(Cl)cc2)C1)c1cnc2ccccn2c1=O (configuration not stated) | 0.97 | -1.2
CCOC(=O)c1c(NC(=S)NC(=O)c2ccc(Cn3cc(Cl)cn3)o2)sc2c1CCC(C)C2 (configuration not stated) | 0.73 | -0.03
COc1ccc2c(C)cc3nncn3c2c1 | 1.4 | 0.87
COc1ccc(OC)c2sc(NNC(=O)COc3ccccc3)nc12 | 0.17 | -0.03
Cc1cc2oc(=O)cc(CSc3nnc(C)n3N)c2cc1C(C)C | 0.78 | -0.04
CS(=O)(=O)c1cnc(-c2ccccc2)nc1Sc1ccc(F)cc1 | 2 | -2.6
O=S(=O)(c1ccc2ccccc2c1)N1CCNCC1 | 0.07 | 2.1
O=C(Nc1ccc(F)c(F)c1)c1ccc(F)c(S(=O)(=O)N2CCOCC2)c1 | 1 | 0.04
CSc1ccc(S(=O)(=O)N2CCC(C(=O)NCc3cccnc3)CC2)cc1 | 0.45 | 0.53
O=C(c1cc(COc2ccc(F)cc2Cl)on1)N1CCC(c2ccncc2)CC1 | 0.44 | -1.6
COC(=O)Cc1ccc(NC(=S)N2CCN(c3ccccn3)CC2)cc1 | 2.2 | -0.2
O=C(Cc1csc(NC(=O)Nc2ccc(Cl)cc2)n1)NCc1ccccn1 | 4.1 | 0.17
O=C(NCc1ccc(Cl)cc1)c1cc2c(s1)CS(=O)(=O)C2 | 0.84 | -1.4
CCOc1ccc(C(C(=O)NC(C)(C)C)N(CCOC)C(=O)CCC(=O)Nc2ccccn2)cc1 (configuration not stated) | 2.3 | 0.05
O=C(COc1ccc(Cl)cc1)Nc1ccc2c(c1)OCO2 | 0.55 | 1
CCOC(=O)C1CCCN(S(=O)(=O)CCNC(=O)c2ccccc2)C1 (configuration not stated) | 0.03 | 0.7
c1ccc(C(c2ccccc2)c2ccn[nH]2)cc1 | 0.54 | -0.53
CCCCN(Cc1cc2cc(OC)ccc2[nH]c1=O)S(=O)(=O)c1ccc(C)cc1 | 0.34 | 0.67
COc1ccc(/C=C/C(=O)OCC(=O)NCc2ccco2)c(OC)c1 | 0.41 | 0.7
O=C(CCC(F)(F)F)N1CCCC(CO)(CCc2ccccc2)C1 (configuration not stated) | 0.97 | -0.22
Nc1nnc(/C=C/c2ccccc2)s1 | 1.8 | -0.89
O=C1CN(C(=O)COC(=O)C2CC(=O)N(Cc3ccco3)C2)c2ccccc2N1 (configuration not stated) | 0.67 | 0.83
Cc1coc2c(C)c3oc(=O)c(CC(=O)N[C@@H](CC(C)C)C(=O)O)c(C)c3cc12 | 1.4 | -4.9
CCCc1ccc(OCc2ccccc2)c2c(=O)cc(C(=O)OCC)oc12 | 0.53 | 0.1
CC(NS(=O)(=O)c1ccc2c(c1)c(=O)n(C)c(=O)n2C)C(=O)NC1CCCCC1 (configuration not stated) | 0.83 | 0.11

Only part of the results is shown; rates above refer to the full screens.
